Calb FLC – C. albicans growth modulation with fluconazole. C. albicans CaCi-2 (fluconazole-resistant clinical isolate) + fluconazole, Alamar Blue growth, 48 h. growth inhibition, % (no concentration beside the values). hit rate 0.57% among 300,000. AID 1979;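 active = most replicates above 75%; inconclusive = exactly half above 75%; inactive = most below 75%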;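 note: all wells also contain fluconazole at 8 µg/ml as a sub-toxic cotreatment; 0% = median of DMSO wells and 100% = median of geldanamycin control wells; wells of about 8 µL received 7.5 nL stock; the first replicate is given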
MLL AF4-AF9 inh – inhibitors of human MLL-AF4/AF9 interaction. inhibition, % at 10 µM. AlphaScreen, biotin-AF4 peptide binding to FLAG-AF9. P42568. hit rate 0.47% among 350,000;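 active = every replicate reaching a set inhibition limit, whatever the replicate mean, cut at about 25% in these data; inconclusive = mean inhibition reaches that limit but some replicates miss it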;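 note: 0% = plate neutral control median and 100% = total signal loss; the record names both 10 and 1 µM as test concentration; the first replicate is given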
Target sequence (P42568 whole entry, looked up): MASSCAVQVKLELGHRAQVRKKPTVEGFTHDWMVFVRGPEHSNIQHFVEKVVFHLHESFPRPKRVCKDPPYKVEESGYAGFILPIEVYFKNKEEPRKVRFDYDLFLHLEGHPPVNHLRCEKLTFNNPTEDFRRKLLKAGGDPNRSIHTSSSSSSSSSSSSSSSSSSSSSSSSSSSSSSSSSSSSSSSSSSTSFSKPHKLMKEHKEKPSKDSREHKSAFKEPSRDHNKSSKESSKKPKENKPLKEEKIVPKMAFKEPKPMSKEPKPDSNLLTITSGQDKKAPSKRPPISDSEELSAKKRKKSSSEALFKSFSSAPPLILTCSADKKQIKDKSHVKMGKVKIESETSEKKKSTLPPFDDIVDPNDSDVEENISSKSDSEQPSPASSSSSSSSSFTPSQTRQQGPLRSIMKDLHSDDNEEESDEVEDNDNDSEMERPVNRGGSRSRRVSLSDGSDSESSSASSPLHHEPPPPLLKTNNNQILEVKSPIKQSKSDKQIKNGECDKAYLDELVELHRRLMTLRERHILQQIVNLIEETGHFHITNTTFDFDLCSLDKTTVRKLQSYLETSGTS
A1 inh – inhibitors of the anti-apoptotic protein A1, read as caspase activation. hit rate 0.066% among 330,000. MEF A1-2A-BIM cells, Caspase-Glo 3/7 luminescence, 3 h; percent of clofoctol response, vehicle zero. AID 2462. caspase activation, % (no concentration beside the values);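 active = over half of replicate activation scores above 10%, or exactly half above 10 with the replicate mean above 10; inconclusive = replicate mean below 10 yet half the replicates above 10; inactive = over half of replicates below 10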;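 note: wells of about 30 µL received 50 nL stock; many hits fall short of the cut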
Beta apoptosis – blocks beta cell apoptosis; AID 435005; protection from apoptosis, % (no concentration beside the values); INS-1E cytokine-induced death, ATP luminescence, 48 h; percent of positive-control rescue, neutral wells zero; hit rate 0.8% among 300,000;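 active = all replicates at 75% or more, or half of them and the mean; inconclusive = half reach 75% but not the mean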;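 note: 0% = cytokine-treated negative control wells and 100% = positive control rescue; higher means more ATP so stronger rescue from cytokine killing; wells of about 40 µL received 100 nL stock; the first replicate is given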
RanGTP-Imp inh – disruptors of Ran-importin-beta complex formation – biochemical, FRET, CFP-Ran, YFP-importin-beta, homogeneous, primary screen | cell-free CFP-Ran/YFP-importin-beta FRET ratio | inhibition, % (test concentration not listed) | hit rate 1.1% among 300,000;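 active = most replicates above 15%; inconclusive = exactly half above 15%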;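 note: 0% = DMSO wells and 100% = Ran loaded with GDP instead of GTP; wells of about 40 µL received 100 nL stock; the first replicate is given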
LANA-H2B inh – blocks KSHV LANA binding to histone H2A/H2B; inhibition, % (concentration not given with the values); Q9QR71; cell-free LANA-H2A/H2B peptide, fluorescence polarization; hit rate 0.6% among 320,000; AID 2629; in the data active = inhibition mostly above about 10%, no sharp cut-off; inactive = mostly below about 6.7%;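 note: stock transfer was 7.5 nL into about 10 µL; 0% = median of vehicle wells and 100% = median of positive control wells; one replicate is shown; the record names a cut of 25% in any replicate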
T cruzi repl – T. cruzi replication inhibition; hit rate 1.4% among 300,000; T. cruzi beta-gal in NIH3T3, luminescence, 90 h; inhibition, % (test concentration not listed);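 active = mean inhibition across valid replicates above about 55%, limit read from the data; inconclusive = mean below that limit but half or more replicates reach it; inactive = mean below it, under half of replicates reach it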;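 note: signal also drops with host cell toxicity which is not excluded here; 0% = plate median of DMSO wells and 100% = zero luminescence signal; higher percent means less beta-gal luminescence so fewer parasites; stock transfer was 50 nL into about 50 µL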
Vif TR-FRET – HIV-1 Vif–A3G interaction blockers – biochemical, TR-FRET, GST-Vif 1-94, biotin-A3G peptide, dose response retest, primary screen (AID 1117319) | TR-FRET GST-Vif / biotin-A3G peptide binding; higher % means a stronger effect; test concentration not given here; strong numbers were not always called active | inhibition, %; hits with a dose series show IC50 in µM | hit rate 0.57% among 260,000;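 active = above the screen mean plus three standard deviations and confirmed in dose response; inconclusive = results disagree or hit not tested in dose response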;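 note: Vif residues 1-94 fused to GST binding biotinylated APOBEC3G peptide 110-148; 0% = full assay without inhibitor and 100% = GST in place of GST-Vif; retest series ran down from 100 µM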
* marks the source's active call; other numbers are inactive results; u = inconclusive; x = not tested or not shown; & = joins results of further samples.

SMILES	Calb FLC	MLL AF4-AF9 inh	A1 inh	Beta apoptosis	RanGTP-Imp inh	LANA-H2B inh	T cruzi repl	Vif TR-FRET
CCC(=Nc1ccc(N)cc1)C1=C(O)C(C(=O)OC)C(C)(C)CC1=O (stereo not given)	-1	x	0.3	28	-6.7	3.2	-28	2µM*
CC(=O)Nc1ccc(S(=O)(=O)N2CCN(c3cccc(C)c3C)CC2)cc1	-10	6.0	-0.1	7	2.9	-5.0	3	23%
CC(=O)Nc1ccc(C(=O)CSc2nccc(=O)[nH]2)cc1	-25	-1.9	1.4	-14	1.1	-1.2	-10	-2%
CN(Cc1ccc(F)cc1)C(=O)C(c1ccccc1)c1ccccc1	1	-3.1	0.5	-3	5.0	1.1	2	x
N#C/C(=C\c1ccc(-c2ccccc2)cc1)c1nc(-c2ccco2)cs1	2	-8.2	-1.6	0	-4.6	-2.5	-7	15%
Cc1cc(C(=O)OCC(=O)N2CCN(c3ccccc3)CC2)c2ccccc2n1	11	x	0.2	-4	1.6	-0.5	5	8%
COc1cc2c(c(OC)c1OC)-c1c(cc3c(c1OC)OCO3)C1OC2[C@@H](C)[C@H]1C (stereo not given in full)	2	-3.1	0.1	-6	4.3	-2.0	7	21%
Cc1ccc(C2/C(=C(/O)c3ccc(Br)cc3)C(=O)C(=O)N2Cc2ccco2)o1 (stereo not given)	9	x	-0.8	-5	-2.1	-0.7	-8	u
CCn1c(SCC(=O)N/N=C(\C)c2ccncc2)nnc1-c1ccccc1	4	-10	0.5	-5	4.5	5.6	-15	5%
N#C/C(=C\c1coc2ccccc2c1=O)C(N)=S	24	1.4	0.8	-11	1.0	1.3	0	8%
CCN(C(=O)Cn1ccc(C(F)(F)F)n1)c1c(N)n(Cc2ccccc2)c(=O)[nH]c1=O	x	-3.4	-0.8	-2	x	-2.1	x	13%
CCOc1ccc(S(=O)(=O)n2ccc(C)n2)c2ccccc12	-12	x	0.7	3	0.1	1.6	22	5%
COC(=O)c1ccc(C(=O)OC)c(NC(=O)CN(C)Cc2ccccc2)c1	-1	-1.5	-0.1	-6	-0.4	-1.2	25	-13%
Cn1cc([N+](=O)[O-])c(C(=O)N2CCCCCC2)n1	6	-1.2	0.8	2	4.2	1.4	-2	x
O=C(c1ccc(NS(=O)(=O)c2cccc(C(F)(F)F)c2)cc1)N1CCCC1	u	-15	0.5	1	-2.4	3.1	11	x

Limited to T cruzi repl and A1 inh, for 5 of the compounds above:
| compound | T cruzi repl | A1 inh |
| --- | --- | --- |
| N#C/C(=C\c1ccc(-c2ccccc2)cc1)c1nc(-c2ccco2)cs1 | -7 | -1.6 |
| Cc1cc(C(=O)OCC(=O)N2CCN(c3ccccc3)CC2)c2ccccc2n1 | 5 | 0.2 |
| COc1cc2c(c(OC)c1OC)-c1c(cc3c(c1OC)OCO3)C1OC2[C@@H](C)[C@H]1C (stereo not given in full) | 7 | 0.1 |
| Cc1ccc(C2/C(=C(/O)c3ccc(Br)cc3)C(=O)C(=O)N2Cc2ccco2)o1 (stereo not given) | -8 | -0.8 |
| CCn1c(SCC(=O)N/N=C(\C)c2ccncc2)nnc1-c1ccccc1 | -15 | 0.5 |

Next entries.
SMILES	Calb FLC	MLL AF4-AF9 inh	A1 inh	Beta apoptosis	RanGTP-Imp inh	LANA-H2B inh	T cruzi repl	Vif TR-FRET
CCn1c(SCC(=O)Nc2nnc(C)s2)nc2c(c1=O)SC(C)C2 (stereo not given)	-8	8.3	0.3	1	-3.4	-3.6	1	1%
C[C@]12CCC(=O)C=C1CCC1C2CC[C@@]2(C)C1CCC21OCCO1 (stereo not given in full)	x	5.0	-0.9	5	x	-3.6	x	-3%
CCCN1CCN(C(=O)CCNC(=O)Cn2cnc3ccccc3c2=O)CC1	-7	-1.5	-0.5	-3	2.2	4.0	-3	x
Cc1cc(NC(=O)/C(C#N)=C/c2ccc(-c3ccc(SC(F)F)cc3)o2)n(-c2ccccc2)n1	-4	-3.6	4.5	-6	-44	-13	9	-4%
O=C(NCCO)/C(=C\c1ccc2c(c1)OCO2)NC(=O)c1ccc(Br)cc1	-4	x	-0.8	3	1.2	2.0	16	14%
Cn1ccnc1C1CCCCN1Cc1nc(-c2ccc(Cl)cc2)no1 (stereo not given)	6	-4.2	-1.1	5	5.0	-7.4	-2	2%
CCCNC(=O)c1ccccc1NC(=O)C1=CSCCO1	-3	-0.6	1.0	-4	2.1	-6.1	-7	x
Cc1c(NC(=S)NC(=O)c2ccc(-c3ccc(Cl)cc3)o2)cccc1C(=O)O	-23	-1.4	0.0	-27	1.7	-3.7	-8	x
COCCCNC(=O)c1cn(Cc2c(F)cccc2Cl)nn1	-3	x	-0.3	-3	-1.4	9.2	-2	1%
COc1ccc(Cl)cc1NC(=O)COC(=O)C1CCCCC1	x	2.6	0.1	-5	x	1.5	x	-11%
Cc1ccc(NC(=O)CN(C)S(=O)(=O)c2cnc[nH]2)c(C)c1	34	3.3	4.0	4	2.2	2.3	-5	x
CC1(C)CC(=O)C(C=NCc2ccc3c(c2)OCO3)=C(O)C1	-14	x	0.1	-6	-3.3	-1.3	2	0%
Nc1cc(=O)[nH]c(SCC(=O)N2CCCc3ccccc32)n1	-6	x	0.3	-2	2.1	-1.5	-6	10%
CCCCn1nnc(NC(=O)COc2ccc(Cl)c(C)c2)n1	-15	x	0.3	-3	x	-8.5	-7	9%
Cc1ccc(C(C)C)cc1OCCCCN1CCCC1	-18	x	0.0	3	-1.1	x	49	-6%

Structures listed so far printed as active in Vif TR-FRET:
| compound | MLL AF4-AF9 inh | RanGTP-Imp inh | LANA-H2B inh | Vif TR-FRET |
| --- | --- | --- | --- | --- |
| CCC(=Nc1ccc(N)cc1)C1=C(O)C(C(=O)OC)C(C)(C)CC1=O (stereo not given) | x | -6.7 | 3.2 | 2µM* |

The listing continues.
SMILES	Calb FLC	MLL AF4-AF9 inh	A1 inh	Beta apoptosis	RanGTP-Imp inh	LANA-H2B inh	T cruzi repl	Vif TR-FRET
COc1ccccc1CN(CC(=O)NCc1ccc2c(c1)OCO2)C(=O)c1csnn1	-18	2.5	0.3	-6	3.9	0.5	11	4%
CC(Sc1nc2ccccc2s1)C(=O)N(C)Cc1ccccc1 (stereo not given)	-8	-3.3	0.5	0	-3.4	-1.1	20	x
C/C=C/c1ccc(OCC(=O)Nc2ccc(OC)c(OC)c2)c(OC)c1	2	1.4	0.1	1	-0.3	-3.2	9	6%
CCSc1nnc(NC(=O)c2ccc(Br)s2)s1	2	x	0.2	10	0.5	4.7	-6	-25%
O=C(CSc1nncn1-c1ccccc1F)NC1CC1	x	0.3	0.5	0	x	-5.4	x	-5%
CCOC(=O)N1CCN(C(=O)c2cc3ccc(OC)cc3[nH]2)CC1	4	-1.0	0.2	-17	0.1	3.8	-15	-4%
O=C(CNc1n[nH]c(=O)[nH]c1=O)N/N=C/c1cccnc1	-6	-1.6	-0.5	3	0.9	-5.4	-18	24%
Cc1ccc(CSCC(=O)N/N=C/c2sccc2C)cc1	-4	x	0.4	-4	0.1	3.1	3	-6%
CCOC(=O)C1CCN(C(=O)/C=C/c2cccs2)CC1	-1	0.0	-0.7	-2	-2.1	-0.3	-5	-4%
COc1ccc(Cc2nc(C)cc(Cl)n2)cc1[N+](=O)[O-]	-11	3.7	1.5	-3	-0.3	0.6	-26	2%
O=C(O)c1ccc(N2C(=O)CCCC2=O)cc1	-5	9.3	-0.2	-4	3.2	2.0	-5	-8%
Cc1occc1C(=O)NC(C)C(C)(C)C (stereo not given)	-8	x	0.4	-5	0.8	-5.7	-15	12%
O=C(COC(=O)c1ccccc1NCCO)NNC(=O)c1cccs1	-10	0.8	-1.3	-4	-0.3	-1.4	-7	4%
CC(OC(=O)c1cccc(S(=O)(=O)N(C)C)c1)C(=O)NCc1ccc2c(c1)OCO2 (stereo not given)	-20	0.0	0.2	-1	2.7	-3.6	0	-2%
CCOC(=O)[C@H]1[C@H]2COc3ccccc3[C@@H]2N2C(=O)c3ccc(Cl)cc3NC(=O)[C@@]12C	x	5.1	1.1	2	x	-0.8	x	x

3 compounds already listed, ordered by the number in LANA-H2B inh, smallest number first.
Structure,LANA-H2B inh
CC(OC(=O)c1cccc(S(=O)(=O)N(C)C)c1)C(=O)NCc1ccc2c(c1)OCO2 (stereo not given),-3.6
CC(Sc1nc2ccccc2s1)C(=O)N(C)Cc1ccccc1 (stereo not given),-1.1
CCOC(=O)[C@H]1[C@H]2COc3ccccc3[C@@H]2N2C(=O)c3ccc(Cl)cc3NC(=O)[C@@]12C,-0.8

(list continues)
SMILES	Calb FLC	MLL AF4-AF9 inh	A1 inh	Beta apoptosis	RanGTP-Imp inh	LANA-H2B inh	T cruzi repl	Vif TR-FRET
CCN1CCN(Cc2ccc(NC(=O)c3ccc(C)c(NC(=O)N4CCNC4=O)c3)cc2C(F)(F)F)CC1	8&-5	4.4&4.9	-0.5&0.6	0&-7	-0.8&4.8	-3.0&-6.2	6&4	4%
CCOC(=O)N(NC(=O)C(O)(c1ccccc1)c1ccccc1)c1ccccc1	7	x	0.2	-5	6.9	0.4	5	x
Cc1ccc(S(=O)(=O)CCSc2cccc(C(=O)O)c2)cc1	-3	-0.3	0.5	-4	3.3	6.1	1	x
COc1ccccc1N1CCN(C(=O)NCc2cccc(C(F)(F)F)c2)CC1	-1	0.6	1.1	-5	0.7	1.4	41	x
CCOc1cccc2sc(NC(=O)CC)nc12	6	-4.6	-0.6	5	u	-3.0	-2	21%
COCCNC(=O)c1onc(CSc2cc(C)cc(C)c2)c1C(=O)O	-13	-5.2	-0.3	-7	-0.7	9.9	-6	-1%
CC(=O)Oc1ccc(N(C(C)=O)S(=O)(=O)c2ccc(C)cc2C)c2ccccc12	0	-0.9	0.9	x	0.3	-6.9	3	x
COc1cc(/C=N/NC(=O)c2ccc3c(c2)OCCO3)c(Br)c(Br)c1O	0	5.7	-0.8	-2	-1.4	-3.2	-13	x
COc1cccc(C=Nc2cc(C)cc(C)c2)c1O	-14	x	-0.9	-12	-3.4	-4.9	1	x
O=C1C2C3C=CC(C3)C2C(=O)N1c1ccc(-c2nc3ccccc3o2)cc1 (stereo not given)	x	x	-2.2	-3	-3.4	1.9	14	-2%
S=c1[nH]nc(-c2ccco2)n1/N=C/c1cccc(Cl)c1Cl	u	-9.0	0.0	0	2.9	1.9	-11	x
CC(C)Cn1c(N)c(C(=O)CSc2nc3ccccc3n2C)c(=O)n(C)c1=O	23	x	0.4	1	9.6	-0.4	-2	1%

Bioassay records: PubChem, several laboratories

Compounds as they come, and some 4.3% of all compounds hit somewhere here.
